Rango-impB inh: inhibitors of Rango-importin beta complex formation. Q14974. Potency, µM (top dose mostly 92.2 µM), for the others: at the highest dose inhibition of complex formation. Rango CFP/YFP FRET sensor + importin beta, 45 min. 340,000 tested, 0.031% active; active = rising FRET ratio curve, often small or poorly fitted; inconclusive = mostly compound fluorescence or quenching in the first reads; inactive = flat curves in all reads;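 also: potency is read from the fitted curve at half-maximal effect; 0% = DMSO wells and 100% = buffer wells lacking importin beta; nearly all actives have a fitted effect of over 15% in size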
Target sequence (Q14974 whole entry, looked up): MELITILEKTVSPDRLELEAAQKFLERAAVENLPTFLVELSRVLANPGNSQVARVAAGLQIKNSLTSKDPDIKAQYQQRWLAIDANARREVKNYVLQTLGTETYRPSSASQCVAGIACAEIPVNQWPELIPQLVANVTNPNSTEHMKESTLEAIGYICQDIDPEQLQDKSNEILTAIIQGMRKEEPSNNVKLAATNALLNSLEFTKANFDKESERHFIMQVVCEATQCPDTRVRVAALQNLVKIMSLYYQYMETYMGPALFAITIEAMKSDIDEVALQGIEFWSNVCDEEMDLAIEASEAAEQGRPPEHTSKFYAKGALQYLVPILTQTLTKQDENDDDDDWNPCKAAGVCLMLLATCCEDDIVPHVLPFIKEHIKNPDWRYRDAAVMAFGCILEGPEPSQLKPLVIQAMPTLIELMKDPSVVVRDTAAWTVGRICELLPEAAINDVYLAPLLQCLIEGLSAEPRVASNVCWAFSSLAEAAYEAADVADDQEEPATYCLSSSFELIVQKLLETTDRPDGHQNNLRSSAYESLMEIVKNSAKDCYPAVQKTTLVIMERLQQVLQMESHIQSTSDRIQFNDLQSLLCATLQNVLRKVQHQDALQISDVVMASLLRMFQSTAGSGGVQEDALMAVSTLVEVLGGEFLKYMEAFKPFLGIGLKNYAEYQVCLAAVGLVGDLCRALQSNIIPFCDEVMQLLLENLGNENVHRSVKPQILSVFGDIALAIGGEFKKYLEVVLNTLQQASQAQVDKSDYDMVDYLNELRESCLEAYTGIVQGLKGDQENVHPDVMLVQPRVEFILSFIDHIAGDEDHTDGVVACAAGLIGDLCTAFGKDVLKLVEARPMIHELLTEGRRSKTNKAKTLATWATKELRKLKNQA
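Inhibition scored from the CFP 486 nm/YFP 530 nm FRET ratio 45 min after adding 0.125 microM importin beta to 50 nM Rango biosensor preincubated 5 min with compound (room temperature, PBS with DTT, Tween-20, BSA). No-importin wells as positive control.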
GLA inh pH 4.5: blocks human alpha-galactosidase A at pH 4.5; purified enzyme, 4-MU-alpha-Gal fluorescence, pH 4.5; activity change, negative = inhibition, % at 105 µM; 230,000 tested, under 10 active; AID 1467; inconclusive = small, poorly fitted or top-dose-only inhibition, or a rising curve; inactive = flat fitted curve, though single readings scatter; no compound was filed as active;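 also: 0% = full activity with enzyme and -100% = basal without enzyme; dose as in the result columns while the protocol names 77 µM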
miR-21 FLuc: miR-21 reporter, rising signal; HeLa miR-21 FLuc reporter, luciferase, 48 h; Potency, µM (titrated, usually from 38.3 µM), for the others: at the top dose reporter change, positive = more light; 340,000 tested, under 10 active; AID 2288; active = well fitted rising curve with a large enough effect; inconclusive = small, poorly fitted or top-dose-only effect; inactive = no such curve, though single readings can be large or run the other way;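 also: % of control where 0% means no effect; miR-21 action dims this reporter so a rising signal means less miR-21 action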
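HeLa cells stably expressing CMV-driven firefly luciferase with a downstream miR-21 binding sequence, endogenously expressing miR-21, were treated with titrations (up to about 40uM final) for 48 hours at 37 degree Celsius. Luciferase luminescence was read after lysis.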
Rango dissoc inh: prevents RanGTP from dissociating the Rango-importin beta complex; O95149+P62826; Potency, µM (titrated, usually from 46.1 µM), for the others: at the top dose activity change, negative = inhibition; Biochemical FRET Rango-importin beta, RanGTP-induced dissociation; AID 540253; 340,000 tested, 0.071% active; active means falling FRET ratio curve, often poorly fitted, with flat reads before Ran was added; inconclusive means other falling curves, or compound fluorescence or quenching; inactive means flat or rising ratio curve;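 also: potency is read from the fitted curve at half-maximal effect; % of control where 0% means no effect; nearly all actives have a fitted effect of over 45% in size; -100% = wells without RanGTP and RCC1; the record marks most hits as doubtful in a second field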
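Rango (0.1 uM)–importin beta (0.25 uM) complex; RanGTP-RCC1 trigger; 45 min RT; CFP/YFP FRET read.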
* = called active by the depositor; ? = inconclusive; . = not tested or not shown; & = joins results of further samples; [ ] = another dose, or the depositor's remark. A portion of the library, so the mix of outcomes need not match the whole.

| GLA inh pH 4.5 | miR-21 FLuc | Rango dissoc inh | Rango-impB inh | compound |
| --- | --- | --- | --- | --- |
| 0 | 0% | 15% | 1.2% | CCC(NC(=O)NC1=NCCS1)(C(F)(F)F)C(F)(F)F |
| . | . | 6% | 1.0% | CN(CCOc1ccccc1)C(=O)CNC(=O)c1ccc(C(C)(C)C)cc1 |
| . | 0% | -11% | 0.3% | COc1cc(NC(=O)c2ccc(NC3=NC4CS(=O)(=O)CC4S3)cc2)cc(OC)c1OC (stereo not given) |
| . | -8% | -1% | 1.2% | CC(C)c1ccc(C(CC(=O)O)N2Cc3ccccc3C2=O)cc1 (stereo not given) |
| -5 | -1% | 1% | -3.5% | CCOc1ccc(-n2c(SCC(=O)NCc3ccco3)nc3c(c2=O)SCC3)cc1 |
| 7 | ? | -1% | 0.4% | Fc1ccc(-n2nnnc2-c2cnc(-c3cccs3)nc2C(F)(F)F)cc1 |
| . | 4% | -10% | -2.8% | COc1ccc(Cl)cc1S(=O)(=O)Nc1ncn[nH]1 |
| . | -17% | 3% | 4.5% | Cc1coc2cc3oc(=O)c(CCC(=O)NC4CC4)c(C)c3cc12 |
| -10 | -1% | -17% | 4.0% | C1=Nc2c(NCc3ccccc3)ncnc2Oc2ccccc21 |
| . | 0% | 0% | 5.2% | CC(C)C(NC(=O)C1CCCCC1)C(=O)NC1CCCC(C)C1C (stereo not given) |
| 1 | -3% | -10% | ? | Cc1sc2ncnc(SCc3ccco3)c2c1C |
| . | . | 24% | -2.9% | O=S(=O)(Nc1cccc(-c2ccc(N3CCOCC3)nn2)c1)c1cc(Cl)ccc1Cl |
| . | 8%&1% | 1% | -0.3% | Cc1ccc(-n2nc3c(=O)n(CCCC(=O)NCc4ccc(F)cc4)nc(C)c3c2C)cc1 |
| 2 | 1% | 1% | 0.3% | CCCNC(=O)CN1C(=O)NC(Cc2c[nH]c3ccccc23)C1=O (stereo not given) |
| 1 | -4% | -4% | -5.7% | Cc1sc2nc(-c3ccccc3)oc(=O)c2c1C |
| . | . | 3% | ? | C=CCn1c(SCC(=O)c2c(N)n(C)c(=O)n(C)c2=O)nnc1-c1ccoc1C |
| . | 1% | 0% | -2.5% | CCCCc1c(O)nc(SCC(=O)N2CCOCC2)n(-c2ccccc2OC)c1=O |
| -5 | -49% | 8% | 1.7% | Cc1ccccc1-c1nc2sc3c(c2c(=O)n1N)CCCC3 |
| -12 | -8% | 21% | 1.5% | Cc1cc(N/N=C/c2c(O)ccc3ccccc23)nc(-c2ccccc2O)n1 |
| . | . | -3% | 2.6% | Cc1ccc(C=NNc2nc3c([nH]2)c(=O)n(C)c(=O)n3C)cc1 |
| 5 | -1% | -7% | 1.1% | Cc1n[nH]c(C)c1CCN(C)Cc1cn(C)nc1-c1ccccc1F |
| -3 | -2% | -9% | 0.1% | CCn1c(-c2cc(-c3cccc(OC)c3)nc3ccccc23)n[nH]c1=S |
| . | 1% | 1% | -3.2% | O=C(COc1ccc([N+](=O)[O-])cc1)Nc1ccc(N2CCN(C(=O)c3ccco3)CC2)cc1 |
| -10 | -4% | 1% | -2.1% | C=CCOc1cccc(C2/C(=C(/O)c3ccccc3)C(=O)C(=O)N2CCN2CCOCC2)c1 (stereo not given) |
| -9 | -2% | 0% | 2.1% | O=C(c1ccco1)N1CCN(S(=O)(=O)c2ccc(F)cc2)CC1 |
| . | . | -10% | 1.0% | CCN(CC)C(=O)[C@H]1C[C@H](CC(=O)NC/C=C(\C)CCC=C(C)C)C(=O)N2CCc3c([nH]c4cc(CCC(=O)N(C)C)ccc34)[C@]12C |
| 10 | -12% | -5% | 2.5% | O=C(NNC(=S)NCc1ccccc1)c1ccc2c(c1)OCO2 |
| 1 | -11% | -1% | -3.7% | Cc1cc(C(F)F)nn1CC(=O)NCc1ccc(Cl)cc1Cl |
| 5 | 2% | -3% | -0.3% | CCOC(=O)c1cnc2nc(C(F)(F)F)[nH]n2c1=O |
| -3 | 0% | 10% | 0.9% | Cc1nn(C(C)CC(=O)O)c(C)c1Br (stereo not given) |

Later entries:
| GLA inh pH 4.5 | miR-21 FLuc | Rango dissoc inh | Rango-impB inh | compound |
| --- | --- | --- | --- | --- |
| 16 | -24% | -2% | 0.6% | c1cncc(-c2nc3cc4ccccc4cc3[nH]2)c1 |
| -1[21.1 µM] | -2% | -8% | ? | CNC(=O)NC(=O)CSc1nnc(-c2ccc(F)cc2)n1CC1CCCO1 (stereo not given) |
| 0 | -4% | -9% | 2.4% | C=CCc1cccc(/C=N/c2ncccc2O)c1O |
| 7 | -11% | -14% | -1.7% | COc1ccccc1C(NC(=O)C1CCCCC1)c1c(O)ccc2ccccc12 (stereo not given) |
| -11 | -2% | -23% | 1.0% | CCCCSc1nnc(C)c(=O)[nH]1 |
| -1 | -1% | -8% | 1.7% | O=C(Oc1ccc(Cl)cc1N1C(=O)CCC1=O)c1ccco1 |
| . | -21% | -8% | 1.2% | Nc1cc(=O)[nH]c(SCCSc2cc(Cl)ccc2Cl)n1 |
| . | 0% | -11% | 2.0% | CN(Cc1ccccc1)C1CCNCC1 |
| . | . | 16% | 1.2% | O=C(CN1CCN(C(=O)C2CCC2)CC1)Nc1ccc(F)cc1 |
| 3 | 2% | -10% | -5.4% | O=C(CSc1nc2ccccc2c(=O)n1NC(=O)Cc1ccccc1)NCc1ccccc1Cl |
| -7 | -1% | 10% | 0.4% | COc1ccc(S(=O)(=O)N2CCN(C(=O)c3cccc(Cl)c3)CC2)cc1 |
| 15 | 0% | -14% | 1.0% | COc1ccc(C(=O)Cn2c3ccccc3n3nc(CCC(=O)O)c(=O)nc23)cc1OC |
| . | . | 10% | -0.9% | Cc1cccc(C(=O)Nc2cc(S(=O)(=O)N3CCOCC3)ccc2N2CCCC2)c1 |
| . | -1% | 5% | -0.7% | Cc1cc(C)cc(C(=O)NCC(=O)NCCc2c[nH]c3ccccc23)c1 |
| . | . | 1% | -0.3% | O=C(Nc1cccc(S(=O)(=O)N2CCOCC2)c1)c1cccc(S(=O)(=O)N2CCCCC2)c1 |
| 14 | -3% | 10% | -3.8% | C/C(=N\NC(=O)CCn1nc(C)cc1C)C(C)(C)C |
| 3 | 0% | -10% | -3.0% | CN(C)c1ccc(P(=O)(OCc2ccccc2)C(O)c2ccc(Br)cc2)cc1 (stereo not given) |
| -10 | -9% | 4% | 3.4% | CCc1ccc2c(c1)cc(CN(C(=S)Nc1ccccc1Cl)C1CC1)c1nnnn12 |
| -9 | -9% | 1% | -1.2% | CCOc1c(OC)cccc1C1CC(=O)Nc2cc(OC)c(OC)cc21 (stereo not given) |
| . | . | -4% | -0.6% | Nc1nonc1-n1nnc(C(=O)N/N=C/c2cccc(F)c2)c1CN1CCCCCC1 |
| . | -1% | 0% | -1.5% | O=C(NCCc1ccccc1)C1CCCN1S(=O)(=O)c1cccc2nsnc12 (stereo not given) |
| -8 | 7% | -14% | ? | Cc1ccnc(SCC(=O)N2CCN(C(c3ccccc3)c3ccccc3)CC2)n1 |
| . | . | -21% | 0.9% | CCOC(=O)C[C@H]1c2ccc(C(F)(F)F)cc2S(=O)(=O)N1C1CCCC1 |
| -14 | 1% | 7% | -2.0% | COc1cc(C(=O)O)cc(NC(=O)c2ccco2)c1OC |
| 5 | 0% | 0% | 1.2% | Cc1nnc(NC(=O)CSc2nnc(-c3ccoc3C)n2CC(C)C)s1 |
| -19 | 0% | 4% | 0.8% | O=C1N=C(N2CCN(c3ccccc3)CC2)S/C1=C\c1ccco1 |
| -7 | -6% | 0% | 4.7% | COc1ccc(N=Cc2ccc[nH]2)cc1 |
| 1 | -12% | -7% | -0.2% | CCn1c(=O)cc(OCC(=O)NC2CCCCC2)c2ccccc21 |
| 1 | -28% | -4% | -0.3% | Cc1cc(C)n(-c2ccc(N3CCOCC3)nn2)n1 |
| -13 | -1% | 44% | -0.2% | Cc1ccc(N(CC(=O)Nc2ccccc2-c2ccccc2)S(=O)(=O)c2ccccc2)c(C)c1 |

The results go on:
| GLA inh pH 4.5 | miR-21 FLuc | Rango dissoc inh | Rango-impB inh | compound |
| --- | --- | --- | --- | --- |
| . | . | 10% | -3.6% | CCN(CC)C(=O)[C@H]1CC(CC(=O)NCCN2CCOCC2)C(=O)N2CCc3c([nH]c4ccc(OC)cc34)[C@]12C (stereo not given in full) |
| 2 | -1% | 8% | 0.9% | CC(C)(C)CC(=O)NCc1cccs1 |
| 10 | 21% | 25% | 13% | CCN(CC)c1ccc(C(=O)OCC(=O)Nc2ccccc2-c2ccccc2)cc1 |
| 2 | -46% | 1% | -3.2% | CCOC(=O)N/N=C/C=C/c1ccccc1[N+](=O)[O-] |
| -11 | -2% | 8% | -1.6% | Cc1cc(C)nc(SCC(=O)NCc2ccco2)n1 |
| . | 7% | -2% | ? | COc1cccc2c1CCc1c-2nc2ccccc2c1C(=O)O |
| -11 | -1% | 1% | -0.6% | CCS(=O)(=O)N1CCN(c2ccc(C(=O)NC34CC5CC(CC(C5)C3)C4)cc2[N+](=O)[O-])CC1 |
| -2 | -9% | -6% | -0.4% | Cc1ccc2c(c1)NC(c1cccs1)C1=C(CC(C)(C)CC1=O)N2 (stereo not given) |
| . | . | 8% | -0.2% | COc1ccc(CNC(=O)COC(=O)[C@@H]2CCCN2C(=O)c2cccs2)cc1 |
| 8 | -18% | . | . | CS(=O)(=O)Nc1ccccc1C(=O)N1CCN(c2ccccc2)CC1 |
| -15 | 0% | -9% | 0.1% | C#CCOCCOCCOCCNc1nc(N2CCN(C(=O)[C@H]([C@@H](C)CC)n3cc([C@@H](N)CC(C)C)nn3)CC2)nc(N2CCN(C(=O)[C@H](Cc3ccc(O)cc3)n3cc([C@@H](N)CC(C)C)nn3)CC2)n1 |
| 7 | -27% | 7% | -4.0% | Cn1cccc1CC(=O)N/N=C/c1ccc(Cl)cc1 |
| -3 | -42% | -4% | 0.6% | O=C(CSc1nnc(Nc2ccccc2)s1)NCCN1C(=O)CSC1=O |
| 2 | -8% | 1% | -3.7% | CN=c1sc(C(=O)Nc2cccc(Cl)c2)cc(=O)n1C |
| . | -9% | 0% | 7.1% | COc1ccc(OCC(O)CN2CC(C)OC(C)C2)cc1 (stereo not given) |
| . | 0% | 29% | 1.4% | CC(=O)c1cccc(NC(=O)N2C3CCCC2CC(NC(=O)C2CC2)C3)c1 (stereo not given) |
| . | . | -20% | -1.4% | O=C(O)Cc1sc(=O)[nH]c1O |
| . | . | 0% | 0.2% | O=C(COC(=O)c1cc(Br)ccc1O)NC12CC3CC(CC(C3)C1)C2 |
| -6 | 13% | -3% | -1.8% | Cc1nn(Cc2ccccc2Cl)c(C)c1C(=O)N1CCN(c2ccccc2)CC1 |
| -5 | -2% | 12% | -0.4% | CC(C)NC(=O)NC(=O)COC(=O)c1ccccc1F |
| -3 | -10% | -15% | -4.0% | O=C(Nc1cccc(C(=O)N2CCCCCC2)c1)c1ccco1 |
| . | 15% | -15% | -1.9% | CC1(C(=O)OCC(=O)Nc2nc(-c3ccc(F)c(F)c3)cs2)CC1(Cl)Cl (stereo not given) |
| -1 | -18% | 10% | -1.7% | COc1cc2ccccc2cc1C(=O)Nc1ccc(S(=O)(=O)Nc2cc(C)on2)cc1 |
| -11 | -33% | 10% | 0.1% | Fc1ccccc1CSc1nc2ccccc2[nH]1 |
| . | . | 16% | 2.9% | Cn1cc(S(=O)(=O)NC2CCCCC2)c(=O)n(C)c1=O |
| -3 | 0% | -9% | 2.6% | O=C(Nc1ccc(Cl)c(Cl)c1)N1N=CCC1c1ccccc1 (stereo not given) |
| -19 | 1% | 9% | -0.4% | CC1(C)CC(=O)C2=C(C1)N(Cc1ccccc1)C(=O)C2(NC(=O)C(C)(C)C)C(F)(F)F (stereo not given) |
| . | 8% | 10% | 3.3% | O=c1c2ccccc2nc(-c2ccco2)n1CCc1ccc(O)cc1 |
| . | 4% | -5% | 0.4% | C/C=C/c1ccc(OCCCCN(C)Cc2ccccc2)c(OC)c1 |
| 3 | -12% | 1% | -4.4% | c1ccc2ncc(-n3cnnn3)cc2c1 |
| . | . | -4% | -0.3% | CC(C)(C)S(=O)(=O)N1C[C@H]2CC/C=C\C/C(c3ccccc3)=C\2[C@@H]1CCO |
| . | -12% | 0% | 0.8% | CC(=O)Nc1ccc(C(=O)Nc2ccc3c(c2)OCCO3)cc1 |
| . | . | ? | -1.2% | CN(C)c1ccc(C(=O)Nc2cccc(S(=O)(=O)N3CCCC3)c2)cc1 |

Screens from PubChem BioAssay.
